# 2A StopGo: lowers the luciferase signal of an FMDV 2A StopGo reporter; human cells with a luciferase reporter of 2A StopGo recoding; control for the full effect not named in the record; Potency, µM (highest dose often 57.9 µM), for inactives: at the top dose signal change, negative = less light; AID 1159524; 1.2% of 410,000 active; active = well fitted falling curve with a large enough effect; inconclusive = small, poorly fitted or top-dose-only effect; inactive = no such curve, though single readings can be large or run the other way; tested in HEK293T cells; note: % is set by controls: 0 for no effect and ±100 for the full control effect; nearly all actives have a fitted effect of over 45% in size; luciferase light after 4 h
# Cruzain inh Det: blocks cruzain activity in presence of Triton detergent | P25779 | purified cruzain, Z-FR-AMC fluorescence, 0.01% Triton | Potency, µM, for inactives: max response, negative = inhibition, most hits filed as inhibitors | 0.43% of 200,000 active;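 note: plate controls were neutral wells for no effect and buffer without enzyme for full effect; nearly all actives have a fitted effect of over 40% in size; top concentration of the series not given in the record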
# Target sequence (P25779 123-467 limits assumed): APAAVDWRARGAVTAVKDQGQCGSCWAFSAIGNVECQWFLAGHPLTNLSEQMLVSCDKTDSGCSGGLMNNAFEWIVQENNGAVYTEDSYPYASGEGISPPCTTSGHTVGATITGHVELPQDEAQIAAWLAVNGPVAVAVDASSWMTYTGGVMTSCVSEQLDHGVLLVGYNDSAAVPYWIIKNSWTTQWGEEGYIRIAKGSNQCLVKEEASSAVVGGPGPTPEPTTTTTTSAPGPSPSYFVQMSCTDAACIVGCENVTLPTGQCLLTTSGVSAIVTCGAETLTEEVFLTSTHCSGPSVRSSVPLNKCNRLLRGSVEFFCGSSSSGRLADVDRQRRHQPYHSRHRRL
#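 Compounds were screened in titration against cruzain (1.5 nM) with 0.01% Triton X-100 to counter colloidal aggregation. Activity was the AMC fluorescence increase over 60 s after adding 2 uM Z-FR-AMC at pH 5.5.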
# SARS PLpro yeast: SARS-CoV PLP inhibition in yeast | S. cerevisiae expressing SARS-CoV PLpro, growth rescue; control for the full effect not named in the record | Potency, µM (highest dose often 32.9 µM), without a hit: at the top dose activity, positive = growth rescue | 0.19% of 330,000 active; active means well fitted rising curve with a large enough effect; inconclusive means small, poorly fitted or top-dose-only effect; inactive means no such curve, though single readings can be large or run the other way; note: 0% is about no effect; nearly all actives have a fitted effect of over 55% in size; growth read by luminescence after 48 h
# NS1 inh: influenza NS1 inhibition; 0.4% of 270,000 active; S. cerevisiae slowed by influenza A NS1, growth recovery by OD600; Potency, µM (doses to about 46.1 µM), for inactives: at the top dose activity, positive = more growth; active means well fitted rising curve with a large enough effect; inconclusive means small, poorly fitted or top-dose-only effect; inactive means no such curve, though single readings can be large or run the other way; note: nearly all actives have a fitted effect of over 50% in size
#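 Compounds were scored for reversing the slow growth caused by influenza A NS1 in S. cerevisiae, measured by optical density at 600 nm. Assay medium contained 2% galactose at pH 6.0; NS1-free yeast of the same strain were the positive control.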
# Marburg entry inh: inhibitors of Marburg virus binding or cell entry; Marburg virus pseudotyped entry inhibition, cell reporter; control for the full effect not named in the record; about a third of the inactives were read at about 46 µM; Potency, µM (top dose mostly 37.8 µM), for inactives: at the top dose activity change, negative = inhibition, actives largely listed as inhibitors; 1.8% of 300,000 active; active = well fitted inhibition curve with a large enough effect; inconclusive = small, poorly fitted or top-dose-only effect, or effect the other way; inactive = flat fitted curve, though single readings scatter; tested in HEK293 cells; about a fifth of its hits are not listed in these tables; note: % is set by controls: 0 for no effect and ±100 for the full control effect; luciferase read-out
# Cruzain inh noDet: blocks cruzain activity in detergent-free assay; P25779; purified cruzain, Z-FR-AMC fluorescence, no detergent; Potency, µM, for the others: max response, negative = inhibition, hits mostly inhibitors; 2.3% of 200,000 active; AID 1476;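 note: plate controls were enzyme without inhibitor for no effect and buffer without enzyme for full effect; nearly all actives have a fitted effect of over 40% in size; top concentration of the series not given in the record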
#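 Purified cruzain at 1.5 nM, pre-incubated 15 min with compound at room temperature in 100 mM sodium acetate pH 5.5, 5 mM DTT, 0.00005% Triton X-100. Reaction started with 2 uM Z-FR-AMC; AMC fluorescence increase over 60 s gives rate.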
# RE007 growth inh: less growth of the S. pombe RE007 Vpr strain | S. pombe RE007 Vpr strain, BacTiter-Glo ATP luminescence, 24 h; control for the full effect not named in the record | Potency, µM (highest dose often 92.2 µM), for the others: at the highest dose activity change, negative = less growth | 0.21% of 360,000 active | AID 651644; active = well fitted falling curve with a large enough effect; inconclusive = small, poorly fitted or top-dose-only effect; inactive = no such curve, though single readings can be large or run the other way;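 note: % is set by controls: 0 for no effect and ±100 for the full control effect; nearly all actives have a fitted effect of over 50% in size; the assay follows cell death caused by Vpr and the record does not say whether a fall means rescue or toxicity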
#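 Fission yeast RE007 carrying one integrated HIV-1 vpr copy, seeded at OD 0.01 in PMG+AL medium with 23 nL pinned compound. Grown 24 h at 30 degrees; viability read by BacTiter-Glo luminescence after 5 min.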
# Lassa entry inh: Lassa virus entry inhibition; Lassa virus pseudotype entry inhibition, cell reporter; control for the full effect not named in the record; 1.2% of 300,000 active; Potency, µM (doses to about 37.9 µM), inactives show at the top dose activity change, negative = inhibition, actives largely listed as inhibitors; active means well fitted inhibition curve with a large enough effect; inconclusive means small, poorly fitted or top-dose-only effect, or effect the other way; inactive means flat fitted curve, though single readings scatter; tested in HEK293 cells; note: % is set by controls: 0 for no effect and ±100 for the full control effect; nearly all actives have a fitted effect of over 50% in size; luciferase read-out
# * marks the source's active call; other numbers are inactive results; ? = inconclusive; . = no result given; [ ] = dose if it differs, or a comment. Unless noted, calls come from the whole dose curve; as a rule, active = well fitted curve in the direction sought with a large enough effect; inconclusive = small, poorly fitted or top-dose-only effect, or another doubt; inactive = no such curve, though single readings can be large; an effect the other way counts as inactive or inconclusive. Potency is the fitted concentration of half-maximal effect. Not a hit list; about 4.8% have a hit in one of these screens.
1	Cc1nn(C)c(C)c1/C=N/NC(=O)C(C)(C)Oc1ccc(Cl)cc1
2	Cc1cc(C)c(S(=O)(=O)NCC(=O)O)cc1C
3	Clc1ccc(-c2nc(-c3ccccn3)no2)cc1Cl
4	Cn1c2ccccc2c(=O)c2c(=O)n(-c3ccccc3)c(-c3ccc(C(C)(C)C)cc3)nc21
5	CC(=O)NC(Cc1ccccc1)C(=O)NC1CCN(C(=O)c2cnccn2)CC1 (stereo not given)
6	CCOC(=O)c1[nH]c2ccc(OC)cc2c1NC(=O)c1ccccc1C(=O)O
7	CC(C)(CO)NCc1cc(Br)ccc1OCc1ccccc1
8	CC(=O)NC1=NN(C(C)=O)C(C)(c2ccc(C)cc2)S1 (stereo not given)
9	Fc1cccc(Nc2cc(-n3cccn3)ncn2)c1
10	O=C(Cn1cnc2sc(-c3ccccc3)cc2c1=O)N1CCOCC1
entry no.	1	2	3	4	5	6	7	8	9	10
2A StopGo	5%	41%[activator]	.	-9%	-25%	10%	.	5%	-6%	.
Cruzain inh Det	-1.0%	1.1%	2.3%	.	-8.1%	.	-2.2%	-0.8%	-4.0%	2.1%
SARS PLpro yeast	-6%	-2%	2%	0%	1%	2%	4%	-8%	-4%	2%
NS1 inh	-3%	6%	-4%	3%	1%	-1%	0%	-7%	-6%	8%
Marburg entry inh	2%	13%	2.9µM*	.	-3%	?	?	-2%	-22%	29%
Cruzain inh noDet	13%	-7%	-16%	.	-10%	.	0%	-2%	11%	-11%
RE007 growth inh	-1%	7%	-18%	4%	12%	0%	-7%	8%	-13%	-3%
Lassa entry inh	-18%	6%	?	.	2%	23%[46.1 µM]	-5%	-5%	4%	-5%

# Overlap with the part before: 4 entries, followed by the next part.
7	CC(C)(CO)NCc1cc(Br)ccc1OCc1ccccc1
8	CC(=O)NC1=NN(C(C)=O)C(C)(c2ccc(C)cc2)S1 (stereo not given)
9	Fc1cccc(Nc2cc(-n3cccn3)ncn2)c1
10	O=C(Cn1cnc2sc(-c3ccccc3)cc2c1=O)N1CCOCC1
11	CC(C(=O)OCC(=O)c1cccc([N+](=O)[O-])c1)N1C(=O)C2C3CCC(C3)C2C1=O (stereo not given)
12	Cc1ccc(NC(=S)N(CCCN(C)C)Cc2cc3cc4c(cc3[nH]c2=O)OCO4)cc1
13	COc1nc2cc(C)ccc2cc1-c1noc(-c2cccnc2)n1
14	Cc1ccc(S(=O)(=O)N2CCCN(C)CC2)cc1
15	COc1ccc(/C=C(\NC(=O)c2ccccc2)C(=O)NCc2ccco2)cc1OC
16	Cc1csc(NC(=O)CCC(=O)N(CC(=O)NC2CCCC2)c2ccccc2)n1
17	CCOC(=O)CSc1n[nH]c(NC(=O)c2ccc(F)cc2)n1
18	CN(C)CCCNC(=S)NCc1ccc(Cl)cc1
19	Cc1cccc(S(=O)(=O)Nc2nc3ccccc3nc2Nc2ccc3c(c2)OCO3)c1
20	CC(C)(C)NC(=O)COC(=O)c1cc(Br)ccc1Cl
entry no.	7	8	9	10	11	12	13	14	15	16	17	18	19	20
2A StopGo	.	5%	-6%	.	-9%	-23%	.	10%	40%[activator]	24%	-21%	-14%	-12%	25%
Cruzain inh Det	-2.2%	-0.8%	-4.0%	2.1%	-1.9%	.	3.1%	.	.	.	2.5%	6.2%	-5.8%	-2.6%
SARS PLpro yeast	4%	-8%	-4%	2%	-6%	0%	7%	1%	0%	-4%	-7%	0%	10%	14%
NS1 inh	0%	-7%	-6%	8%	11%	-3%	-1%	8%	11%	4%	-10%	2%	?	0%
Marburg entry inh	?	-2%	-22%	29%	-29%	?	.	-3%[46.1 µM]	-18%	7%[46.1 µM]	0%	-2%	21%	.
Cruzain inh noDet	0%	-2%	11%	-11%	9%	.	6%	.	.	.	4%	-9%	16µM*	-1%
RE007 growth inh	-7%	8%	-13%	-3%	0%	-23%	.	1%	0%	-4%	6%	3%	6%	-19%
Lassa entry inh	-5%	-5%	4%	-5%	?	?	.	6%[46.1 µM]	-3%	10%[46.1 µM]	-5%	4%	21%	.

21	Cc1ccc(NC(=O)CN2C(=O)CSc3ccc(S(=O)(=O)N4CCCC4)cc32)cc1F
22	Cc1ccc(C(=O)N/N=C\c2ccc[nH]2)cc1[N+](=O)[O-]
23	N#Cc1ccc(NCC(=O)Nc2ccc3c(c2)OCCO3)cc1
24	CCCCOc1ccc(Br)cc1CSC(=N)N
25	Cc1cccc(NC(=S)NCc2cccs2)c1
26	Cc1ccc(CNC(=O)C2CCN(Cc3nc(-c4cccc(Br)c4)oc3C)CC2)cc1
27	COc1ccc(C2/C(=C(/O)c3ccc(C)cc3)C(=O)C(=O)N2c2ccccn2)cc1 (stereo not given)
28	Cc1ccc(NCc2nnc(SCc3ccc(C#N)cc3)n2Cc2ccco2)c(C)c1
29	Cc1cc(Oc2ccc(C#N)cc2)nc(N2CCOCC2)n1
30	Cc1cccc(N2C(=O)N3[C@H](c4ccc(F)cc4)[C@@H]4C(=O)N(C5CCCCC5)C(=O)[C@@H]4[C@]3(Cc3ccccc3)C2=O)c1
entry no.	21	22	23	24	25	26	27	28	29	30
2A StopGo	-9%	10%	44%[activator]	13µM*	41%[activator]	-3%	1%	-13%	-16%	-20%
Cruzain inh Det	-6.2%	-0.2%	.	-2.9%	.	0.7%	.	-2.0%	0.7%	.
SARS PLpro yeast	.	6%	-2%	-15%	1%	.	1%	-11%	-9%	-3%
NS1 inh	.	-3%	.	-5%	6%	.	2%	-58%	-20%	5%
Marburg entry inh	.	4.5µM*	0%[14.2 µM]	?	-20%[46.1 µM]	.	-8%	?	2%	.
Cruzain inh noDet	-1%	-17%	.	-8%	.	?	.	-10%	3%	.
RE007 growth inh	.	5%	29%	-25%	0%	.	-19%	-12%	3%	-1%
Lassa entry inh	-20%[46.1 µM]	8.9µM*	2%	?	-17%	?	8%	6%	-2%	.

31	CNC(=O)c1sc2nc(-c3ccc(OC)cc3)cn2c1C
32	Cc1cc(C)nc(N(C#N)Cc2ccccc2)n1
33	COCCNC(=O)C(c1ccc(C)o1)N(C(=O)c1snc(C(N)=O)c1N)c1ccc(C)cc1 (stereo not given)
34	COC(=O)C1(C)NC(c2cccc(C)c2)C2C(=O)N(c3ccc(F)cc3)C(=O)C21 (stereo not given)
35	CN(Cc1ccc(Cl)cc1)C(=O)COC(=O)CSc1ccc([N+](=O)[O-])cc1
36	COc1ccccc1CNC(=O)CCCCn1c(=O)c2ccccc2n(Cc2ccccc2C)c1=O
37	CSCCC(NC(=O)c1occc1C)C(=O)O (stereo not given)
38	CC(=O)c1sc(NC(=O)C2(F)C(F)(F)C(F)(F)C(F)(F)C(F)(F)C2(F)F)nc1C
39	CN1CC(=O)N(CC(=O)Nc2ccc(Br)cc2F)C1=O
40	Cc1cc(NS(=O)(=O)c2ccc(Nc3nc(-c4sc(NC(=O)c5ccccc5)nc4C)cs3)cc2)no1
entry no.	31	32	33	34	35	36	37	38	39	40
2A StopGo	52%[activator]	39%	.	3%	-12%	-18%	9%	.	7%	.
Cruzain inh Det	-9.3%	2.1%	-2.1%	.	.	-1.7%	3.5%	-15%	.	-11%
SARS PLpro yeast	-11%	3%	0%	0%	-5%	.	29%	-31%	0%	22%
NS1 inh	-99%	-8%	-33%	9%	.	.	9%	-121%	-2%	9%
Marburg entry inh	.	-12%[46.1 µM]	?	.	?	-9%[46.1 µM]	11%	2.6µM*	?	.
Cruzain inh noDet	-1%	2%	1%	.	.	-4%	7%	-2%	.	6.3µM*
RE007 growth inh	-5%	7%	4%	-23%	21%	.	-1%	-11%	-1%	.
Lassa entry inh	.	11%	-23%	.	-7%	4%[46.1 µM]	?	1.6µM*	17%	.

# Full records from above. Values in the order: 2A StopGo | Cruzain inh Det | SARS PLpro yeast | NS1 inh | Marburg entry inh | Cruzain inh noDet | RE007 growth inh | Lassa entry inh
# Cc1ccc(NC(=S)N(CCCN(C)C)Cc2cc3cc4c(cc3[nH]c2=O)OCO4)cc1 as listed: -23% | . | 0% | -3% | ? | . | -23% | ?
# CC(=O)NC1=NN(C(C)=O)C(C)(c2ccc(C)cc2)S1 (stereo not given) as listed: 5% | -0.8% | -8% | -7% | -2% | -2% | 8% | -5%

# Remaining list, next part.
41	CCC(=O)Nc1ccc2c(c1)Cc1cc(NC(=O)CC)ccc1-2
42	CSc1ccc(CCNC(=O)c2ccc3c(c2)c(C)c(C)n3Cc2ccc(F)cc2)cc1
43	CC(=O)c1ccc(NC(=O)Cn2nc(C)c([N+](=O)[O-])c2C)cc1
44	c1ccc(CNc2nc(N3CCOCC3)nc(N3CCOCC3)n2)cc1
45	Cc1ccc2[nH]c(=O)c3cc(C(=O)N4CCN(C(=O)c5ccco5)CC4)sc3c2c1
46	Cc1cc(NCCCn2ccnc2)n2c(nc3ccccc32)c1C#N
47	CN1CCN(C(=O)C(=O)Nc2c3c(nn2-c2cccc(Cl)c2)CSC3)CC1
48	O=[N+]([O-])c1ccc(N=Nc2ncc[nH]2)cc1
49	CCN(CC)c1ccc(-c2nc(-c3ccccn3)no2)cc1[N+](=O)[O-]
entry no.	41	42	43	44	45	46	47	48	49
2A StopGo	10%	-21%	2%	-2%	-8%	-18%	-21%	?	-23%
Cruzain inh Det	.	1.7%	.	-3.1%	-6.2%	-3.8%	-2.3%	.	-0.5%
SARS PLpro yeast	-1%	.	-4%	-4%	14%	1%	.	-11%	.
NS1 inh	7%	.	-5%	-3%	-8%	4%	.	-65%	.
Marburg entry inh	.	.	?	-18%	-1%	?	.	.	7%[46.1 µM]
Cruzain inh noDet	.	16µM*	.	8%	4%	-21%	5%	.	23%
RE007 growth inh	-2%	.	-4%	9%	-2%	-4%	.	-24%	.
Lassa entry inh	.	?	?	-11%	.	-5%	9%[46.1 µM]	.	-3%[46.1 µM]
